High-throughput results: PubChem, The Scripps Research Institute Molecular Screening Center
OX1R antag: OX1R (HCRTR1) antagonists, primary screen, fluorescence, CHO/OX1R cells, Fluo-8 calcium, orexin A; Fluo-8 calcium fluorescence; Orexin/Hypocretin receptor type 1 (Homo sapiens), O43613; inhibition, % at 5 µM; actives 0.43% (n = 330,000);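 active means inhibition above its plate's threshold, mean inhibition of all tested compounds on the plate plus 3 SD, cut at about 37% in these data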;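 further: 0% = orexin A challenge wells and 100% = SB-334867-A antagonist wells; not every result past the cut was called active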
Target sequence (O43613 whole entry, looked up): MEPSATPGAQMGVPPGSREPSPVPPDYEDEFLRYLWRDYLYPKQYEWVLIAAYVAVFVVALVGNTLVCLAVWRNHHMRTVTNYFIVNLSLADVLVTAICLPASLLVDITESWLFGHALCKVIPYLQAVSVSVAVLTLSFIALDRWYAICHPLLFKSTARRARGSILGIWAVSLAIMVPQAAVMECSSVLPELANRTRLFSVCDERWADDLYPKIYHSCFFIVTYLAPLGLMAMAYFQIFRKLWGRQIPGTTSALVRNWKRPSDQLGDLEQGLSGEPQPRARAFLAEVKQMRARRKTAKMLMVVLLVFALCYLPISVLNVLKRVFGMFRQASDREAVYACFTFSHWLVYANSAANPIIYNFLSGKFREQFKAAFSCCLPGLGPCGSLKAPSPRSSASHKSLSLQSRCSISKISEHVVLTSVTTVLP
Active calls of the source: *.

A first look, 2 compounds:
O=C(Cc1ccc(S(=O)(=O)N2CCCCC2)s1)Nc1ccc(F)c(F)c1 was read as OX1R antag -9.
Screening O=S(=O)(N/N=C\C=C\c1ccccc1)c1ccccc1 returned OX1R antag 7.

Results, from the first entry:
O=C(Cc1ccc(S(=O)(=O)N2CCCCC2)s1)Nc1ccc(F)c(F)c1 was read as OX1R antag -9.
Screening O=S(=O)(N/N=C\C=C\c1ccccc1)c1ccccc1 returned OX1R antag 7.
Screening COC(=O)c1c(NC(=O)CSc2ncnc3ccccc23)sc(C)c1C returned OX1R antag -29.
`Cc1cccc(OCC2=NS(=O)(=O)c3ccccc3N2)c1` gave OX1R antag -26.
Screening COc1ccc(C)cc1-n1nnnc1SCC(=O)N1CCC(C(=O)Nc2nccs2)CC1 returned OX1R antag -35.
C/C(Cn1nc([N+](=O)[O-])cc1C)=N\NC(=O)COc1ccccc1[N+](=O)[O-] was read as OX1R antag -26.
For O=C(CS(=O)(=O)Cc1ccccc1)Nc1ccc(Cl)cn1 the results were OX1R antag -21.
Screening CCc1ccc(N2CC(C(=O)NCc3ccc4c(c3)OCO4)CC2=O)cc1 (configuration not stated) returned OX1R antag -15.
`Oc1ccccc1C(Nc1nccs1)c1ccc2cccnc2c1O` (configuration not stated) gave OX1R antag -28.
CCN(CC)c1cc(Cl)c2nonc2c1N was read as OX1R antag -6.
Screening Cc1ccccc1CS(=O)(=O)Cc1ccc(C(=O)NCc2ccco2)o1 returned OX1R antag -23.
`CCOc1cc(CNn2cnnc2)cc(Br)c1OCC(=O)NC1CCCCC1` gave OX1R antag -26.
`Cc1cccc(OCCC(=O)NCC(=O)Nc2cccc(C)c2C)c1` gave OX1R antag -5.
CCC(C)(C)NC(=O)C(c1ccccc1)N(Cc1cccnc1)C(=O)c1csnn1 (configuration not stated) was read as OX1R antag -31.
Screening C=CCN(C(=O)c1csnn1)C(C(=O)NC1CCCCC1)c1ccccc1F (configuration not stated) returned OX1R antag -28.
For COc1ccc(-n2c(=O)c3c4c(sc3n(CC(=O)Nc3cc(C)[nH]n3)c2=O)CCC4)c(OC)c1 the results were OX1R antag -12.
Screening Cc1ccc2c(c1)N(C(=O)CCC(=O)N1CCC(C(N)=O)CC1)CC(C)O2 (configuration not stated) returned OX1R antag -5.
For COC(=O)C(C)n1nnc2sc(-c3ccccc3)cc2c1=O (configuration not stated) the results were OX1R antag -4.
Screening COc1ccc(C(CC(=O)N2CCCCC2)c2c(OC)cc(OC)c3ccc(=O)oc23)cc1 (configuration not stated) returned OX1R antag -27.
Screening CNC(=S)N(CCc1c(C)[nH]c2ccc(C)cc12)Cc1cc(OC)c(OC)c(OC)c1 returned OX1R antag -29.
N#CC1=C2SCN(c3ccccc3)CN2C(=O)CC1c1cccs1 (configuration not stated) was read as OX1R antag 6.
`COC(=O)C1=C(C)NC2=C(C(=O)CC(C)(C)C2)C1c1cccc(C)n1` (configuration not stated) gave OX1R antag -13.
For CCN(CC)CCOc1c(C)cccc1Cl the results were OX1R antag -12.
CCOc1ccc(CCNC(=O)c2cc(=O)[nH]c3ccc(S(=O)(=O)N(CC)CC)cc23)cc1OCC was read as OX1R antag -16.
For COC(=O)c1ccc(C2/C(=C(\O)c3ccc(OC)c(C)c3)C(=O)C(=O)N2c2cc(C)on2)cc1 (configuration not stated) the results were OX1R antag -20.
`CCn1nc(C)c(C2C(C#N)=C(N)Oc3n[nH]c(C)c32)c1C` (configuration not stated) gave OX1R antag -1.
FC(F)(F)c1cccc(N2CCN(CC3CC=CCC3)CC2)c1 (configuration not stated) was read as OX1R antag -31.
C[C@H]1CN=C(Nc2ccccc2)N1CCCC1CCCC1 was read as OX1R antag -33.
Screening O=C(N/N=C/c1ccc2c(c1)OCO2)C(=O)Nc1ccc2ccccc2c1 returned OX1R antag -25.
`CC(C)(CO)NC(=O)CC1C(=O)NCCN1Cc1ccc(-c2ccccc2)cc1` (configuration not stated) gave OX1R antag -22.
For Cn1c(=O)c2c(nc(CN3CCN(C(=O)c4ccco4)CC3)n2CCCc2ccccc2)n(C)c1=O the results were OX1R antag -29.
Cc1ccccc1-c1nc(CN2CCCC(C(=O)NCCCN3CCOCC3)C2)c(C)o1 (configuration not stated) was read as OX1R antag -28.
For O=c1cc(O)nc[nH]1 the results were OX1R antag -5.
`CCC1CCc2c(sc(NC(C)=O)c2C#N)C1` (configuration not stated) gave OX1R antag -10.
For CC(C)C[C@H](NC(=O)C1CCN(S(=O)(=O)c2ccccc2)CC1)C(=O)NCc1ccccn1 the results were OX1R antag -16.
Screening Cc1nc2ccccc2c2oc(C(=O)NC3CC3)cc12 returned OX1R antag -4.
CCNC(=O)Nn1c(-c2ccccc2)nc2ccccc2c1=O was read as OX1R antag -19.
O=C(CN1C(=O)NC2(CCc3ccccc32)C1=O)c1ccc(Cl)cc1 (configuration not stated) was read as OX1R antag -22.
CCCCN(CC)S(=O)(=O)N1CCC(C(=O)NCc2ccc(F)cc2)CC1 was read as OX1R antag -22.
Nc1ncnc2c1ncn2CCc1ccccc1 was read as OX1R antag -3.
For Cc1ccccc1N(C(=O)CNC(=O)c1ccco1)C(C(=O)NC1CCCCC1)c1ccncc1 (configuration not stated) the results were OX1R antag -20.
For O=C(NCc1ccccn1)C(=O)NCC1OCCCN1S(=O)(=O)c1ccc(F)cc1 (configuration not stated) the results were OX1R antag 6.
`C=CCn1cc(-c2cccc(Cl)c2)cc(C#N)c1=O` gave OX1R antag -12.
For Cc1cccc2nc(CSc3nncn3-c3ccccc3)cn12 the results were OX1R antag -11.
For NC(=O)CC1SC(N)=NC1=O (configuration not stated) the results were OX1R antag 6.
`O=C1CC(c2ccsc2)c2ccc3ccccc3c2N1` (configuration not stated) gave OX1R antag -29.
For CCC(CC)C(=O)Nc1cccc(C(=O)N2CCCC2)c1 the results were OX1R antag -15.
For CC(=O)Nc1ccc(Sc2ccccc2C(=O)O)c(C(=O)O)c1 the results were OX1R antag -18.

Ordered by number of heavy atoms (largest number first): five of the compounds above
For Cc1ccccc1N(C(=O)CNC(=O)c1ccco1)C(C(=O)NC1CCCCC1)c1ccncc1 (configuration not stated) the results were OX1R antag -20.
For O=C(NCc1ccccn1)C(=O)NCC1OCCCN1S(=O)(=O)c1ccc(F)cc1 (configuration not stated) the results were OX1R antag 6.
CCCCN(CC)S(=O)(=O)N1CCC(C(=O)NCc2ccc(F)cc2)CC1 was read as OX1R antag -22.
O=C(CN1C(=O)NC2(CCc3ccccc32)C1=O)c1ccc(Cl)cc1 (configuration not stated) was read as OX1R antag -22.
Nc1ncnc2c1ncn2CCc1ccccc1 was read as OX1R antag -3.

Next section:
Screening CCCCc1nc(SCC(=O)Nc2nnc(C(C)C)s2)n[nH]1 returned OX1R antag -13.
Screening COc1ccc(C(O)CNc2ccc(C)cc2)cc1 (configuration not stated) returned OX1R antag -21.
Screening CCOC(=O)Cc1c(C)nc2c(-c3cccc(Br)c3)c[nH]n2c1=O returned OX1R antag -7.
O=C(CSc1nnc(-c2cccnc2)n1Cc1ccco1)N1c2ccccc2Sc2ccccc21 was read as OX1R antag -26.
O=C(c1ccco1)N1CCN(Cc2nc(Cc3ccccc3)no2)CC1 was read as OX1R antag -12.
For O=S(=O)(Nc1nc2ccccc2nc1NCC1CCCO1)c1cccc(Cl)c1 (configuration not stated) the results were OX1R antag -22.
For Cc1ccc2c(CN(C)Cc3cccc(F)c3)cc(=O)oc2c1 the results were OX1R antag -26.
CC(=O)c1c(C)[nH]c(C(=O)N2CCN(c3ccccn3)CC2)c1C was read as OX1R antag -11.
For CCN(C(=O)COC(=O)c1ccc(Cl)nc1)C1CCS(=O)(=O)C1 (configuration not stated) the results were OX1R antag -11.
COC(=O)C(=C/C=C/c1ccco1)C(=O)OC was read as OX1R antag -8.
Screening Cc1ccc(S(=O)(=O)Nc2cccc(C(=O)NCC(c3ccco3)N3CCCCC3)c2)cc1F (configuration not stated) returned OX1R antag -36.
`CCN(CC)C(=O)CCCC(=O)N(CC)CC` gave OX1R antag 1.

4 entries drawn at random from those above:
Screening COc1ccc(C(CC(=O)N2CCCCC2)c2c(OC)cc(OC)c3ccc(=O)oc23)cc1 (configuration not stated) returned OX1R antag -27.
Screening O=S(=O)(N/N=C\C=C\c1ccccc1)c1ccccc1 returned OX1R antag 7.
`Cc1cccc(OCCC(=O)NCC(=O)Nc2cccc(C)c2C)c1` gave OX1R antag -5.
For CC(C)C[C@H](NC(=O)C1CCN(S(=O)(=O)c2ccccc2)CC1)C(=O)NCc1ccccn1 the results were OX1R antag -16.

The results go on.
Screening Cc1ccc(C(C)C)c(OCCSc2nc3ccccc3n2CC(=O)O)c1 returned OX1R antag -3.
For C[C@H]1C[C@@H]2[C@H]([C@@H](O)C[C@@]3(C)[C@H]2CC[C@]3(O)C(=O)CO)[C@@]2(C)C=CC(=O)C=C12 the results were OX1R antag -4.
For COc1ccc(-n2c(Cc3cccn3C)nnc2SCC(=O)NCc2ccc(F)cc2)cc1 the results were OX1R antag -32.
Cc1ccc(C(=O)Nc2ccncc2)c(Cl)c1 was read as OX1R antag 3.
O=C(N/N=C/c1ccc([N+](=O)[O-])o1)c1cn(-c2ccccc2)nc1-c1ccccc1 was read as OX1R antag -8.
`CCSc1ccc([C@@H]2[C@@H]3C(=O)N(CC)C(=O)[C@@H]3[C@]3(C(=O)OC)CCCN23)cc1` gave OX1R antag -16.
CCC(=O)Nc1cccc(NC(=O)CSc2nnc(-c3ccc(NS(C)(=O)=O)cc3)n2C)c1 was read as OX1R antag -21.
O=C(OCC(=O)c1ccccc1Br)c1ccncc1 was read as OX1R antag -3.
For CCOC(=O)N1CCC(N(CCN(C)C)C(=S)Nc2cc(Cl)cc(Cl)c2)CC1 the results were OX1R antag -19.
Screening CC1CCN(CCCn2c(=S)[nH]c3c(sc4ccccc43)c2=O)CC1 returned OX1R antag -28.
CSc1ccc(CCNC(=O)CCc2nnc3ccc(N4CCCCC4)nn23)cc1 was read as OX1R antag -29.
`O=C(NCC(=O)N(c1cccc(F)c1)C(C(=O)NC1CCCC1)c1cccnc1)c1ccco1` (configuration not stated) gave OX1R antag -8.

Already shown: an excerpt of the list.
Screening Cc1ccc(C(C)C)c(OCCSc2nc3ccccc3n2CC(=O)O)c1 returned OX1R antag -3.
For C[C@H]1C[C@@H]2[C@H]([C@@H](O)C[C@@]3(C)[C@H]2CC[C@]3(O)C(=O)CO)[C@@]2(C)C=CC(=O)C=C12 the results were OX1R antag -4.
For COc1ccc(-n2c(Cc3cccn3C)nnc2SCC(=O)NCc2ccc(F)cc2)cc1 the results were OX1R antag -32.
Cc1ccc(C(=O)Nc2ccncc2)c(Cl)c1 was read as OX1R antag 3.
O=C(N/N=C/c1ccc([N+](=O)[O-])o1)c1cn(-c2ccccc2)nc1-c1ccccc1 was read as OX1R antag -8.
`CCSc1ccc([C@@H]2[C@@H]3C(=O)N(CC)C(=O)[C@@H]3[C@]3(C(=O)OC)CCCN23)cc1` gave OX1R antag -16.
CCC(=O)Nc1cccc(NC(=O)CSc2nnc(-c3ccc(NS(C)(=O)=O)cc3)n2C)c1 was read as OX1R antag -21.

Additional entries:
`CCOc1ccc(-c2[nH]nc3c2C(c2ccc4c(c2)OCO4)C(C#N)=C(N)O3)cc1OC` (configuration not stated) gave OX1R antag -38.
Screening Cc1ccc(C)c(NC(=O)CCc2nnc3ccc(N4CCCCC4)nn23)c1 returned OX1R antag -23.
`COc1cc2c(cc1OC)C(C)N(C(=O)c1c(C)noc1C)CC2` (configuration not stated) gave OX1R antag -4.
Screening O=C(CSc1nncc2ccccc12)Nc1ccc(C(=O)O)cc1 returned OX1R antag -17.
O=C(NC1CCCCC1)C(c1ccncc1)N(C(=O)c1csnn1)c1ccc(F)cc1 (configuration not stated) was read as OX1R antag -26.
For Cc1cc(C)c(NC(=O)CNC(=O)CN2C(=O)NC3(CCCc4ccccc43)C2=O)c(C)c1 (configuration not stated) the results were OX1R antag -6.
Screening COc1cccc(C(=O)NC(=S)Nc2ccccc2N2CCCCC2)c1 returned OX1R antag -43.
Nc1ccc(SC(F)(F)F)cc1 was read as OX1R antag 1.
`O=C(NCCN1CCOCC1)c1cc2ccccc2oc1=O` gave OX1R antag -7.
Screening OC1(c2cccc(C(F)(F)F)c2)CCN(Cc2nc(-c3cnccn3)no2)CC1 returned OX1R antag -23.
Cc1nnc(NC(=O)c2cccc(S(=O)(=O)N3CCN(C)CC3)c2)s1 was read as OX1R antag -10.
For COC(=O)c1ccc(NC(=O)C23CC4CC(C2)CC(n2cnc(Cl)n2)(C4)C3)cc1 the results were OX1R antag -33.
`CCC(C(=O)Nc1cc(C(=O)Nc2cc(C)ccn2)ccc1Cl)c1ccccc1` (configuration not stated) gave OX1R antag -13.
Screening COc1ccccc1CC(=O)Nc1c[nH]c(=O)[nH]c1=O returned OX1R antag 6.
O=S(=O)(NCc1ccc2c(c1)OCO2)c1c(F)cc(F)cc1Br was read as OX1R antag -13.
`CC(/C=C/c1cccs1)=C\C(=O)O` gave OX1R antag -14.
For CC1CCCCC1NC(=O)CCS(=O)(=O)c1ccc2c(c1)NC(=O)CS2 (configuration not stated) the results were OX1R antag -12.
COc1ccc(S(=O)(=O)NN=C2CCCCC2)cc1 was read as OX1R antag -14.
`O=C(O)c1ccccc1OCCOc1ccccc1C(=O)O` gave OX1R antag 1.
For Cc1ccccc1C(=O)NNC(=O)Cc1ccccc1 the results were OX1R antag -4.
Screening COc1ccccc1NS(=O)(=O)c1cc(C(=O)NCc2ccco2)ccc1C returned OX1R antag -7.
`Cc1nc(N2CCCCC2)c2ccsc2n1` gave OX1R antag -52.
Screening CCCCN1C(N)=NC[C@@H]1Cc1ccc(O)cc1 returned OX1R antag -6.
`O=C1c2ccccc2C(Nc2ccccc2F)N1c1cccnc1` (configuration not stated) gave OX1R antag -21.
Screening CCCOc1ccc(C(=O)Nc2ccc(S(=O)(=O)N3CCN(C)CC3)cc2)cc1 returned OX1R antag -14.
Cc1cc(C(F)(F)F)nn1CC(=O)NNC(=S)Nc1ccc(F)cc1 was read as OX1R antag 3.
For CCN1CCN(c2ccc(S(=O)(=O)N3CCCCC3)cc2NC(=O)c2sccc2C)CC1 the results were OX1R antag -45.
Screening Cc1cc(C)nc(/N=C(\N)N2CCCCCC2)n1 returned OX1R antag -2.
Screening CN(CC(=O)NC1CCCCCC1)S(=O)(=O)c1cnc[nH]1 returned OX1R antag 1.
O=C(COC(=O)c1ccc(Cl)c(Cl)c1)NC1CCCC1 was read as OX1R antag 6.

Some of the compounds tested, and most or all hits are left out here.
